Screening results deposited in PubChem by several laboratories.
Arbovirus anti: blocks arbovirus infection; arbovirus infection cell-based antiviral screen; inhibition, % at 10 µM; 200,000 compounds, 0.37% hits;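 active = inhibition from about 30%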;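 note: bluetongue infection of BSR cells; cell survival read as ATP light after 72 h; 0% = infected wells without compound and 100% = uninfected wells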
YopH inh: blocks Yersinia enterocolitica YopH tyrosine phosphatase; fluorescence Ex485/Em525; inhibition, %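 (about 10 µM by stock and volumes)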; 140,000 compounds, 0.16% hits; AID 898;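 active = inhibition of 50% or more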;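 note: controls were vehicle for no effect and minimum signal wells for full effect; inactives centre near -20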
Mtb betalactam: beta-lactam sensitization of Mtb H37Rv; M. tuberculosis H37Rv growth with meropenem, percent inhibition; hits of this screen are not shown here; inhibition, % at 25 µM; 330,000 compounds, 0.27% hits;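 active = about 74% or more and at least 40 points above the plate without the antibiotic, then above 30% in a dose series; inconclusive = first-round hits that could not be retested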;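 note: growth measured after seven days incubation then overnight dye step; 0% = bacteria only wells and 100% = bacteria with antibiotic; twin plates without the antibiotic show which effects depend on it; some results filed as inactive read as strong as hits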
RecA splice inh: blocks M. tuberculosis RecA intein splicing; P9WHJ3; cell-free RecA intein splicing, fluorescence; inhibition, %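 (about 9 µM by stock and volumes)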; 290,000 compounds, 0.75% hits; in the data active = inhibition above about 30%; inconclusive = no clear call, values can overlap the other calls;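 note: 0% = vehicle wells and 100% = reference inhibitor control wells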
Target sequence (P9WHJ3 whole entry, looked up, canonical isoform): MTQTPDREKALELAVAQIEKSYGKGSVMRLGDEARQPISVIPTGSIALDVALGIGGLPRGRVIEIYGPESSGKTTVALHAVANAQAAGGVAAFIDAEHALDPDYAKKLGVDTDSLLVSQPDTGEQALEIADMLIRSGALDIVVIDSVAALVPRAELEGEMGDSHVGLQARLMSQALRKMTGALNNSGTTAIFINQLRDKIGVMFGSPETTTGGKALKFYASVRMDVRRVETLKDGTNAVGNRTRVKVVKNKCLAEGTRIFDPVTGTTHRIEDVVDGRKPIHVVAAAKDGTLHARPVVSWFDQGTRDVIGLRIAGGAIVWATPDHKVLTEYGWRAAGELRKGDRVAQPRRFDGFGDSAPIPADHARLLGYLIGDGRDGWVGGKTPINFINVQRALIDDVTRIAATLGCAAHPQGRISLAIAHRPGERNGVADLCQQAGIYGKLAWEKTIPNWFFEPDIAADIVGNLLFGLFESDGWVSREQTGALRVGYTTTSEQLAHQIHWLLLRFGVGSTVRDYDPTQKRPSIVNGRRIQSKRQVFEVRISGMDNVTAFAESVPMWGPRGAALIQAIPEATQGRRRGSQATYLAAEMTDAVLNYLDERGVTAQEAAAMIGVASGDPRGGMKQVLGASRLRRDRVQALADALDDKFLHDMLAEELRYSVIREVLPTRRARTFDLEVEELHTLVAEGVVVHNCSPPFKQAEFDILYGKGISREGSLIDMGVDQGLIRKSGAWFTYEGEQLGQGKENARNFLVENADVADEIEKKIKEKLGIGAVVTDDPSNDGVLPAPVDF
Mtb growth: M. tuberculosis H37Rv growth inhibitors, H37Rv strain (AID 1626); M. tuberculosis H37Rv growth inhibition; higher % means a stronger effect; one-dose inhibition, % at 10 µM; IC50 in µM for titrated hits; 220,000 compounds, 0.95% hits;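 active = confirmed in a dose series; inconclusive = inhibition above 80% but not taken into the dose series; inactive = below 80% or under 30% at every dose of the series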;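 note: bacteria incubated seven days before Alamar blue readout; 0% = bacteria only wells and 100% = bacteria with antibiotic wells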
Numbers without * were called inactive; u = inconclusive; x = not tested or not shown.

SMILES	Arbovirus anti	YopH inh	Mtb betalactam	RecA splice inh	Mtb growth
Cc1ccnc(NS(=O)(=O)c2ccc(NC(=O)C3CCCCC3)cc2)n1	-1	-41	3	-0.4	-7%
CCCN1CCN(C(=O)c2cc3c(s2)-c2ccccc2OC3)CC1	x	x	u	-42	x
O=C(Nc1cccc(Cl)c1)Nc1ccc(Br)cc1F	4	-26	9	0.0	60%
Cc1c(Cl)cnc(NC(=O)COC(=O)C(NC(=O)c2ccco2)C(C)C)c1Cl (stereo not given)	9	-20	-3	4.2	-3%
CCn1c(=N)n(CC(O)COc2ccc(C)cc2)c2ccccc21 (stereo not given)	x	x	-1	-2.9	5%
CCN(CC)CCNC(=O)c1cc2c(=O)n(CC)c3ccccc3c2s1	x	x	13	0.9	x
CC(C)COC(=O)C(C)Nc1n[nH]c(=S)[nH]c1=O (stereo not given)	-3	x	0	-3.1	-1%
CCOC(=O)C1(CCc2ccccc2)CCN(C(=O)CN2CCOC2=O)CC1	-1	x	0	1.5	0%
C=CCn1c(SC(C)C(=O)NC2CC2)nnc1-c1ccoc1C (stereo not given)	x	x	4	-1.4	x
COC(=O)N/N=C\c1c(C)[nH]n(-c2ccccc2)c1=O	-3	x	0	9.9	-10%
O=C(O)c1ccc(N2C(=O)CC(SC(=NCc3ccc4c(c3)OCO4)Nc3ccccc3)C2=O)cc1 (stereo not given)	x	x	27	1.7	1%
COc1cc(C2c3c(oc4ccccc4c3=O)C(=O)N2CCN2CCOCC2)cc(OC)c1OC (stereo not given)	x	x	-15	-1.0	-3%
CCc1nnc(NC(=O)CSc2nnc(CNc3ccc(Cl)cc3)o2)s1	0	-34	-4	-4.3	-2%
Cc1cccc(NC(=O)c2cccc(NC3=NC4CS(=O)(=O)CC4S3)c2)c1 (stereo not given)	x	x	4	-3.2	x
Cc1nn(-c2ccccc2)c(Cl)c1/C=C1\SC(=S)NC1=O	18	-7	10	4.0	11%
Cc1cccc(S(=O)(=O)C(C#N)c2nc3ccccc3nc2N2CCOCC2)c1 (stereo not given)	17	-4	u	0.0	-1%
CN(C)C(=O)CSC1c2ccccc2C(=O)N1c1ccccc1 (stereo not given)	0	-23	-8	-1.9	-7%
O=C(c1ccc(F)cc1F)N1CCN(c2ccccn2)CC1	x	x	4	1.5	x
CN(C)C(=O)CSc1cccc2cccnc12	-20	-7	5	0.2	76%
CCC(CC)C(=O)N=C1SC2CS(=O)(=O)CC2N1CCc1ccc(OC)c(OC)c1 (stereo not given)	x	x	-4	17	-12%
CCN1C(=O)c2cccc3c(NC(=O)c4ccccc4)ccc1c23	-12	1	-15	-7.6	-13%
Oc1[nH]c2ccccc2c1C=NCC1CCCO1 (stereo not given)	3	-28	17	2.7	2%
O=C1C(=O)c2cccc3cccc1c23	-10	-28	-4	25	-3%
Cc1ccccc1OC(C)C(=O)N1CCN(c2ccccn2)CC1 (stereo not given)	x	x	-8	-1.3	x
O=S(=O)(c1ccccc1)c1ccccc1/C=N\O	6	-44	-9	-0.2	-3%
Cc1ccc(NC(=O)CC2SC(=O)NC2=O)cc1 (stereo not given)	18	1	-2	-3.1	-2%
CCN(CC)CCCNc1ccc(-c2nnc(-c3ccc(OCC(C)C)cc3)o2)cn1	x	x	0	1.6	x
COCCCNCC(=O)Nc1sc(C)c(C)c1C(=O)OC	-1	-15	6	-1.6	49%
Cc1ccc(SCCCCN2CCNCC2)cc1	-1	-14	-4	x	2%
CCCN(C(=O)CN1C(=O)NC2(CCCCCC2)C1=O)C1CCS(=O)(=O)C1 (stereo not given)	6	x	-7	0.0	0%

By substructure, the compounds so far with four or more nitrogen atoms
SMILES	Arbovirus anti	YopH inh	Mtb betalactam	RecA splice inh	Mtb growth
Cc1ccnc(NS(=O)(=O)c2ccc(NC(=O)C3CCCCC3)cc2)n1	-1	-41	3	-0.4	-7%
CC(C)COC(=O)C(C)Nc1n[nH]c(=S)[nH]c1=O (stereo not given)	-3	x	0	-3.1	-1%
C=CCn1c(SC(C)C(=O)NC2CC2)nnc1-c1ccoc1C (stereo not given)	x	x	4	-1.4	x
COC(=O)N/N=C\c1c(C)[nH]n(-c2ccccc2)c1=O	-3	x	0	9.9	-10%
CCc1nnc(NC(=O)CSc2nnc(CNc3ccc(Cl)cc3)o2)s1	0	-34	-4	-4.3	-2%
Cc1cccc(S(=O)(=O)C(C#N)c2nc3ccccc3nc2N2CCOCC2)c1 (stereo not given)	17	-4	u	0.0	-1%
CCN(CC)CCCNc1ccc(-c2nnc(-c3ccc(OCC(C)C)cc3)o2)cn1	x	x	0	1.6	x

(further entries)
SMILES	Arbovirus anti	YopH inh	Mtb betalactam	RecA splice inh	Mtb growth
CC(C)c1ccc(-c2noc(C3CCCN(C(=O)c4ccc(F)cc4F)C3)n2)cc1 (stereo not given)	-25	-37	17	11	19%
Cc1cc(SCNC(=O)c2ccccc2)ncn1	-5	-25	-6	-0.7	-4%
CC(NC(=O)CSc1n[nH]c(N)n1)c1ccccc1 (stereo not given)	x	x	0	0.9	x
CCOC(=O)c1ccc2c(c1)sc(=NC(=O)c1ccco1)n2CCOC	-2	-31	-2	-1.6	-5%
CCN=C1Sc2nc3ccc(OCC)cc3cc2CN1CCOC	-13	2	-2	2.9	-9%
O=C1CC2C(=O)NCCN2C(=NC(=O)c2ccccc2)N1 (stereo not given)	6	x	2	-2.4	-3%
CC(C)CCOc1ccc(NC(=O)C2OC3OC(C)(C)OC3C3OC(C)(C)OC23)cc1 (stereo not given)	3	-14	10	0.9	-1%
COc1ccc2oc(=O)c(C(=O)N3c4ccccc4CC3C)cc2c1 (stereo not given)	-9	-30	-2	-0.5	6%
COc1ccccc1NC(=O)/C(=N/OCc1ccc(F)cc1)C(C)=O	8	x	3	0.1	-1%
Cc1ccccc1C(=O)Nc1ccc(N(C)C)c2ccccc12	x	x	98	5.2	x

Reprinted at random: two compounds from above
SMILES	Arbovirus anti	YopH inh	Mtb betalactam	RecA splice inh	Mtb growth
CC(NC(=O)CSc1n[nH]c(N)n1)c1ccccc1 (stereo not given)	x	x	0	0.9	x
CCn1c(=N)n(CC(O)COc2ccc(C)cc2)c2ccccc21 (stereo not given)	x	x	-1	-2.9	5%

Later entries
SMILES	Arbovirus anti	YopH inh	Mtb betalactam	RecA splice inh	Mtb growth
Cc1ccc(C(=O)NCCc2c[nH]c3ccccc23)c(C)c1	x	x	12	1.2	x
O=C(CN(C(=O)CCC(=O)Nc1nccs1)c1ccc(F)cc1)NCc1ccccc1	x	x	-1	-1.4	x
O=C(Cc1ccccc1F)OCC(=O)N1CCc2ccccc21	-1	x	-7	1.3	15%
Cc1nc2ccccc2c(=O)n1-c1ccc(-c2ccccc2)cc1	x	x	49	0.7	x
O=C(CN1CCOCC1)Nc1cccc(C(=O)Nc2cccc(C(F)(F)F)c2)c1	-5	-10	0	x	16%
CCCC(C)c1nnc(NC(=O)CCS(=O)(=O)c2ccccc2)s1 (stereo not given)	x	x	86	2.9	x
CN(C)C(=O)c1cnc(Sc2ncc(C(F)(F)F)cc2Cl)n1C	-1	-14	-5	-1.9	-19%
CCCOc1ccc(-c2nnn(CC(=O)N3CCCCC3)n2)cc1	x	x	-6	-1.3	-1%
COc1ccc(C(=O)Nc2scc(-c3ccc(Cl)cc3Cl)c2C(N)=O)cc1	-8	-14	-4	-2.3	-8%
Cc1ccccc1OC(C)c1nc(-c2ccccc2)no1 (stereo not given)	-1	32	-2	x	-9%
Cc1ccc2cccc(Oc3cnccn3)c2n1	-2	-16	-1	2.2	-4%
CCOC(=O)c1cc(-c2ccccc2)sc1NC(=O)c1ccc(OC)cc1	5	-28	14	-1.2	-5%
CSc1nc(-c2ccccc2)c(-c2ccccc2)[nH]1	-1	-27	-4	-1.8	-1%
O=C1NC2(CCCCCC2)C(=O)N1Cc1ccccc1Br	x	x	-2	2.1	x
CC1CCc2c(sc3ncn(N)c(=N)c23)C1 (stereo not given)	x	x	5	-5.7	1%
C=CCNC(=O)/C(C#N)=C/c1c(N2CCN(c3ccccc3)CC2)nc2c(C)cccn2c1=O	x	x	1	-56	x
COc1cc(C(=O)NC(=S)Nc2ccc(NC(=O)c3ccco3)cc2)cc(OC)c1OC	2	-7	1	1.1	6%
CC(C)COc1ccc(C(=S)N2CCCC2)cc1	x	x	-11	3.5	x
CCNc1ccc(S(=O)(=O)C(F)(F)F)cc1NC(=O)C12CCC(CC1)C2	8	-35	6	-0.1	-6%
O=c1cc(-c2ccccc2)n(S(=O)(=O)c2ccccc2)o1	1	-11	3	2.6	2%
O=C(CCCOc1ccc(Cl)cc1Cl)NCC1CCCO1 (stereo not given)	-3	-13	-4	-0.5	1%
Cc1c(NCc2ccccc2O)c(=O)n(-c2ccccc2)n1C	x	x	10	-4.4	-1%
O=C(CN1C(=O)COc2ccccc21)Nc1ccc(N2CCOCC2)cc1	x	x	-2	2.4	x
CN(C)C(=O)c1ccc(Oc2ccc(C(=O)N(C)C)cc2)cc1	8	-35	-5	-1.6	-5%
COc1cccc(-c2csc(N3CCN(CC(=O)NNC(=O)c4ccc(Cl)cc4)CC3)n2)c1	4	-26	0	-1.8	5%
CCOC(=O)C1CCCN(C(=O)c2cc(Nc3ccc(OC)cc3OC)nc3ccccc23)C1 (stereo not given)	0	-11	0	0.8	-3%
COc1ccc(-c2[nH]c(-c3ccc(C)cc3)nc2SCC(=O)Nc2nccs2)cc1	19	-25	-4	4.3	12%
COc1ccc(-n2c(Cc3cccn3C)nnc2SCC(=O)Nc2ccc(C)c(Cl)c2)cc1	-26	-14	4	3.1	6%
COc1cc(OC)cc(C(=O)N[C@H](C(=O)Nc2cccc(S(=O)(=O)N3CCCC3)c2)C(C)C)c1	x	x	1	0.2	8%
Fc1ccc(C2=Nn3c(Cc4ccccc4)nnc3SC2)cc1	9	-32	7	2.1	-4%
Cc1ccc2cc(CN(Cc3nnnn3C3CCCC3)C3CCCCC3)c(=O)[nH]c2c1C	-7	-38	x	0.8	-4%
COC(=O)CC1C(=O)NC2CCCCC2N1C(=O)c1ccccc1 (stereo not given)	-3	1	-6	2.2	2%
COc1ccc(C(C)=O)cc1COC(=O)c1ccc(N)c([N+](=O)[O-])c1	2	x	-4	0.8	5%
O=C(Nc1cc(Sc2ccccn2)cc([N+](=O)[O-])c1)c1cccc(F)c1	-29	-27	7	5.8	-5%
CC(C)NC(=O)COc1ccc(S(=O)(=O)N2CCOCC2)cc1	0	-5	-5	-2.3	2%
Cc1ccsc1/C=N/NC(=O)c1ccco1	-6	14	-1	-1.5	5%
Cn1c(SCC(=O)N2CCCCCC2)nnc1-c1ccco1	x	x	-4	1.0	x
COc1cc(C2C(C#N)=C(N)OC3=C2C(=O)CCC3)c([N+](=O)[O-])cc1OC (stereo not given)	8	-20	-12	-9.6	-8%
Cn1c(-c2ccc(F)cc2)cnc1NCc1ccccc1	-2	21	2	-1.2	-2%
COc1ccc(-c2csc(NC(=O)c3cc(=O)c4ccccc4o3)n2)cc1OC	2	x	12	0.3	6%

Next part (two carried over from the part before).
SMILES	Arbovirus anti	YopH inh	Mtb betalactam	RecA splice inh	Mtb growth
Cn1c(-c2ccc(F)cc2)cnc1NCc1ccccc1	-2	21	2	-1.2	-2%
COc1ccc(-c2csc(NC(=O)c3cc(=O)c4ccccc4o3)n2)cc1OC	2	x	12	0.3	6%
COc1ccccc1-c1nnc(SC/C(O)=C(\C#N)c2nc3ccccc3[nH]2)n1C1CCCCC1	0	-35	30	13	39%
C=C(C)C1CC=C(CN2CCC(C(=O)OCC)CC2)CC1 (stereo not given)	-10	-37	-10	-1.1	-5%
CCn1c(=O)cc(SCC(=O)N2CCN(c3ccccc3F)CC2)c2ccccc21	-4	-6	4	5.2	-1%
CCCCN1CCc2c([nH]c3ccccc23)C1=O	2	-26	-1	-0.3	7%
COCCn1c(SCC(=O)Nc2cccc(S(N)(=O)=O)c2)nc2ccccc21	-1	-9	-23	-0.9	-1%
COc1ccc(N=C2NC(=O)C(CO)(CO)S2)cc1	x	x	-6	2.1	x
O=C(CN1C(=O)/C(=C/c2ccc(F)cc2)SC1=S)NC1CCS(=O)(=O)C1 (stereo not given)	x	x	2	1.9	x
O=C(Cn1c(=S)[nH]c2ccccc2c1=O)N1CCN(c2ccccc2)CC1	-7	x	0	-0.6	-6%
O=S(=O)(c1ccccc1F)N1CCCc2ccccc21	x	x	3	5.5	x
O=C(O)COCC(=O)Nc1ccc2c(c1)CCC2	2	-25	0	-0.9	-3%
CC1CCCN(C2(O)C(=O)Nc3c(C(F)(F)F)cccc32)C1 (stereo not given)	x	x	-8	-3.1	x
CC(C)NC(=O)/C(=N\O)c1ccccc1	5	-8	6	-1.8	-3%
CCOc1cc(N2CCOCC2)c(OCC)cc1NC(=O)CCS(=O)(=O)c1ccc(Cl)cc1	-7	-28	-5	2.4	-16%
O=C(/C=C/c1ccccc1)N/C(=C/c1ccccc1)C(=O)Nc1ccc(C(=O)O)cc1	6	-28	-2	1.3	4%
Cc1ccc(NC(=O)CNc2cc(S(=O)(=O)N3CCOCC3)ccc2NCC2CCCO2)cc1F (stereo not given)	x	x	-16	0.4	x
C=CCOC(=O)N1CCN(c2cccc(C(F)(F)F)c2)CC1	-2	-53	-8	1.1	-8%
O=C(CCCc1cccs1)Nc1nccs1	-2	x	2	0.0	-2%

An excerpt (hit frequency here may not be typical).
